Anthrax LT inh = anthrax lethal toxin internalization inhibition; Cells, anthrax lethal toxin internalization, FRET ratio (460/530); Potency, µM (doses to about 40 µM), for inactives: at the highest dose activity change, negative = inhibition, actives largely listed as inhibitors; 0.67% of 70,000 active; AID 912; active = well fitted falling ratio curve with the 530 nm signal flat; inconclusive = other ratio curves, or a change in one channel alone; inactive = flat curves in the ratio and both channels; the % refers to the ratio; also: % is scaled to controls: 0 for no effect and ±100 for the full control effect; nearly all actives have a fitted effect of over 50% in size; tested in ME-180 cells; beta-lactamase reporter
Prx2 Sm inh = blocks S. mansoni peroxiredoxin 2 enzymatic activity | AID 448 | S. mansoni Prx2 activity coupled to TGR/GSH (TGR is thioredoxin glutathione reductase), NADPH fluorescence loss, qHTS; some inactives read as strong as hits | 0.07% of 65,000 active | Potency, µM; active means full or partial inhibition curve with a strong effect at the top dose; inconclusive means weaker partial or single-point curve; inactive means no accepted curve; also: series up to 57 µM; many of its hits are not listed in these tables
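Purified S. mansoni TGR and Prx2 in pH 7.4 phosphate buffer with EDTA and Tween-20 were preincubated with compounds for 15 min. Further NADPH/GSH was added, then a 2.5 mM H2O2 aliquot initiated turnover, followed kinetically by NADPH fluorescence.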
Numbers without * were called inactive; ? = inconclusive; . = not tested or not shown; & = joins results of further samples; [ ] = another dose, or the depositor's remark. Potency is read from the fitted curve at half-maximal effect. An excerpt. The share of hits here may be higher or lower than overall.

SMILES | Anthrax LT inh | Prx2 Sm inh
CC[C@H](C)[C@@H]1O[C@]2(CC[C@@H]1C)C[C@H]1C[C@H](CC=C(C)[C@@H](O[C@@H]3C[C@H](OC)[C@H](O[C@@H]4C[C@H](OC)[C@H](O)[C@H](C)O4)[C@H](C)O3)[C@@H](C)C=CC=C3CO[C@@H]4[C@@H](O)C(C)=C[C@@H](C(=O)O1)[C@]34O)O2 | ? | .
Cc1cc(N2CCN(c3ccccn3)CC2)n2nc(C)nc2n1 | -3% | >57
COc1ccccc1NC(=O)CCC(=O)Nc1nnc(C(F)(F)F)s1 | 9% | >57
Cc1ccnc(N2C(=O)c3ccccc3C2Nc2ccccc2Cl)c1 (stereo not given) | ? | >57
Cc1cc(C)cc(O)c1 | -3% | .
Cc1ccc2c(c1)N(CCCC(=O)NCc1ccc3c(c1)OCO3)C(=O)CO2 | -5% | >57
CC1Cn2c(nnc2-c2cccs2)S1 (stereo not given) | 6% | >57
CC(=NCCCO)c1c(O)n(Cc2ccccc2)c(=O)[nH]c1=O | -3% | >57
COc1cccc(Nc2ncc3nc(-c4ccc(Cl)cc4)c(=O)n(CCC#N)c3n2)c1 | ? | >57
O=C(Cn1cnc2c(nnn2Cc2ccc(F)cc2)c1=O)NCC1CCCO1 (stereo not given) | -4% | >57
CCC(=O)Nc1cc(Cl)ccc1N1CCN(C(=O)CC)CC1 | ? | .
COc1cc(N)ccc1NC(=O)c1cccs1 | -1% | >57
O=c1c(-c2cc(F)cc(F)c2)nc2cncnc2n1-c1ccccc1 | ? | >57
COCCN(CCOC)c1nc(C)nc2c1nc(-c1ccccc1)n2CCCN1CCCCC1C (stereo not given) | -8% | .
Nc1cc(Cl)c(N)cc1Cl | 0% | .
c1ccc2c(N3CCNCC3)nc(-c3ccc4c(c3)OCO4)nc2c1 | 4% | >57
COCC(=O)Nc1nc2ccc(C)cc2s1 | -1% | >57
O[C@@H]1[C@H](O)[C@H]2[C@@H](O)CCN2C[C@@H]1O | -19% | >11
CCCCOc1ccc(C(=O)Nc2ccc(S(=O)(=O)Nc3cc(C)on3)cc2)cc1OC | -6% | >57
CCN(CC)CCCCOc1ccccc1OC | 2% | .
CCOC(=O)CCN1C(=O)[C@H]2[C@H]3[C@H](O)[C@H](O)C/C(=N/OCC(C)C)[C@H]3CC[C@@H]2C1=O | -5%[8 µM] | .
COc1ccc(C(=O)N2CCN(C(=O)Cc3ccccc3)CC2)cc1OC | ? | >57
O=C(Nc1ccccc1Cl)N1CCN(c2ncccn2)CC1 | -3% | >57
CCOC(=O)c1ccc(NC(=O)NC2CC3CCC(C2)N3Cc2nnnn2C(C)(C)C)cc1 (stereo not given) | -3% | >57
CNc1nc(NC)nc(-n2c(C(F)(F)F)nc3ccccc32)n1 | 2% | >57
CNC(=O)c1ccc2snnc2c1 | 3% | >57
CCc1c(C)nc2[nH]nc(NC(=O)C(F)(F)F)n2c1=O | 11% | >57
Cc1ccc2c(c1)c1c(n2CC(O)Cn2c(C)nc3ccccc32)/C(=N\O)CCC1 (stereo not given) | -20% | >57
O=C(CCn1c(=O)sc2ccccc21)NCCC1=CCCCC1 | 4% | >57
COc1ccc(COC(=O)N/N=C2/C[C@@H](O)[C@@H](O)[C@@H]3[C@H]4C(=O)N(c5ccc(F)cc5F)C(=O)[C@@H]4CC[C@H]23)cc1 | ? | .
CCOC(=O)c1ccc(NC(=O)CNC(=O)C2CCCCC2)cc1 | -16% | .
NC(=O)[C@@H]1CCCN1Cc1ccc2c(c1)OCO2 | -1%[8 µM] | >11
Cc1cc(NC(=O)c2sc(Nc3cccc(C(F)(F)F)c3)nc2N)no1 | -20% | >57
CCn1c(=O)c2cc(S(=O)(=O)NCCOc3ccccc3)ccc2n(CC)c1=O | 3% | >57
Cn1cc(-c2nc3cncnc3n(-c3ccccc3)c2=O)c2ccccc21 | ? | >57
C=CCSc1nc2ccccc2[nH]1 | 2% | >57
COCCOC(=O)C1=C(C)NC2=C(C(=O)CC(c3cccs3)C2)C1c1ccsc1 (stereo not given) | 4% | >57
CS(=O)(=O)Nc1cccc(-c2ccc3ncnc(NCc4cccnc4)c3c2)c1 | -3% | >57
CC(=O)Oc1cc(C(C)C)c(OCCN(C)C)cc1C | -1%[3.58 µM] | >11&>57
CC1CC(C)CN(CC(=O)N2CCc3[nH]c4ccccc4c3C2)C1 (stereo not given) | -16% | >57

Some of these compounds in order of count of non-hydrogen atoms, highest first:
SMILES | Anthrax LT inh | Prx2 Sm inh
COc1ccc(COC(=O)N/N=C2/C[C@@H](O)[C@@H](O)[C@@H]3[C@H]4C(=O)N(c5ccc(F)cc5F)C(=O)[C@@H]4CC[C@H]23)cc1 | ? | .
CCOC(=O)c1ccc(NC(=O)NC2CC3CCC(C2)N3Cc2nnnn2C(C)(C)C)cc1 (stereo not given) | -3% | >57
Cc1cc(NC(=O)c2sc(Nc3cccc(C(F)(F)F)c3)nc2N)no1 | -20% | >57
CC(=O)Oc1cc(C(C)C)c(OCCN(C)C)cc1C | -1%[3.58 µM] | >11&>57
C=CCSc1nc2ccccc2[nH]1 | 2% | >57

(continued)
SMILES | Anthrax LT inh | Prx2 Sm inh
COc1ccc(C2c3c(oc4c(C)cc(C)cc4c3=O)C(=O)N2Cc2cccnc2)cc1OC (stereo not given) | 20% | >57
C=CC[C@@H]1C=C[C@H](Oc2ccc(C)cc2)[C@H](COC(=O)NCc2cccc3ccccc23)O1 | -1%[8 µM] | .
COC(=O)c1ccccc1NC(=O)Nc1cccnc1 | -5% | >57
CCn1c(=S)sc2nc(C)sc21 | -7% | >57
Cc1ccc(CCNC(=O)C2CCN(c3nn4c(=O)cc(C)nc4s3)CC2)cc1 | -2% | >57
O=C(c1cccc(C(F)(F)F)c1)N1CCCCCC1 | . | >57
c1ccc(OCCSc2nnnn2-c2ccccc2)cc1 | -7% | >57
OCc1cn(-c2ccccc2)nc1-c1ccc(-c2nn(-c3ccccc3)cc2CO)cc1 | ? | >57
O=C1N(CN2CCN(c3cccc(Cl)c3)CC2)c2ccccc2C12OCCCO2 | ? | >57
CCSc1ccc2nnc(-c3cccc(F)c3)n2n1 | ? | >57
Cc1ccc2nc(NCCCN3CCOCC3)c(C=NCCCN3CCOCC3)c(=O)n2c1 | -3% | >57
O=C(Nc1ccc(Cl)c(Cl)c1)Nc1cc(C(=O)N2CCOCC2)ccc1N1CCCCC1 | . | >57
Cc1ccc(C(=O)CSc2nc3cccnc3n2C)cc1 | 3% | >57
O=C(NCCc1c[nH]c2ccccc12)C(F)(F)C(F)F | -6% | >57
O=c1cc(N2CCOCC2)[nH]c(=O)n1C1CCCCC1 | 9% | >57
O=C(CC1CCCC1)Nc1nc2ccccc2[nH]1 | -12% | ?
CC(C)Cn1cnc2c(N)nc3ccccc3c21 | 1% | >57
COC(=O)C1C2C=CC3(CN(C(C)C)C(=O)C13)O2 (stereo not given) | 4% | >57
Cc1ccc2[nH]c3nc(SCCN4CCOCC4)nnc3c2c1 | 5% | >57
COc1ccc(NC(=O)CCS(=O)(=O)c2ccc3c(c2)CCCN3C(C)=O)cc1 | -4% | >57

Three compounds drawn at random from those above:
SMILES | Anthrax LT inh | Prx2 Sm inh
O=C(Nc1ccc(Cl)c(Cl)c1)Nc1cc(C(=O)N2CCOCC2)ccc1N1CCCCC1 | . | >57
OCc1cn(-c2ccccc2)nc1-c1ccc(-c2nn(-c3ccccc3)cc2CO)cc1 | ? | >57
O=C1N(CN2CCN(c3cccc(Cl)c3)CC2)c2ccccc2C12OCCCO2 | ? | >57

Additional compounds.
SMILES | Anthrax LT inh | Prx2 Sm inh
Cn1c(CCCOc2ccc(Cl)cc2Cl)nnc1SCC(=O)Nc1nccs1 | 2% | >57
CC(C#N)CCC#N (stereo not given) | ? | .
CN1CCN(CCC(=O)Nc2ccccc2Cl)CC1 | 3% | >57
Cc1ccc(SCCCCN2C(=O)NC(C)(C)C2=O)cc1 | 4% | >57
CCC(C)(C(=O)NC1CCCC1)N(C(=O)CNC(C)=O)c1ccccc1 (stereo not given) | 9% | >57
O=C(C1CCN(c2ncnc3c2sc2cccc(F)c23)CC1)N1CCOCC1 | ? | >57
CC(=O)N1CC=CC1(CC(C)C)C(=O)NCCc1c[nH]c2ccccc12 (stereo not given) | -10% | .
COc1ccc2nc(C)c3cc(C)oc3c2c1 | -10% | >57
CCS(=O)(=O)N1CCC(C(=O)NCCC2=CCCCC2)CC1 | 4% | >57
CCn1cc(C(=O)O)c(=O)c2cc(S(=O)(=O)N(C)C)ccc21 | -9% | >57
Cc1oc(/N=C/c2ccc(Cl)cc2Cl)c(C#N)c1C | -8% | >57
O=c1c(CCc2ccccc2)nc2cncnc2n1Cc1ccc(F)cc1 | ? | >57
O=C(c1csnn1)N1CCC2(CCCN(c3ccncc3)C2)CC1 | ? | >57
COc1ccc(OC)c(-n2c(N)c(C(=O)NCC3CCCO3)c3nc4ccccc4nc32)c1 (stereo not given) | ? | >57
O=C(Cn1cnc2ccccc2c1=O)c1c[nH]c2ccccc12 | ? | >57
CC1=C[C@@H]2c3cccc4[nH]cc(c34)C[C@H]2N(C)C1 | 5% | >57
C1CCC(n2nnnc2CN2CCCC2)CC1 | 6% | >57
COc1cc(OC)cc(C(=O)Nc2ccc(-c3nc4ccccc4o3)c(O)c2)c1 | ? | >57
COc1cc(NC(=O)C2CCCN2S(=O)(=O)c2cccc3cccnc23)cc(OC)c1OC (stereo not given) | -6% | >57
Cc1cc(CCN2CCC(=O)NC2=O)ccc1OC(C)C | 1% | >57
Cc1cccc(-c2nnc(SCC#N)n2Cc2ccccc2)c1 | 16% | >57
COc1cccc(NC2=CC(=O)CC(C)(C)C2)c1 | ? | >57
O=C(c1ccncc1)N1CCC2(CCCN(c3cccc(-c4ccccc4)c3)C2)CC1 | -30% | >57
CCOc1ccccc1NC1c2ccccc2C(=O)N1Cc1ccco1 (stereo not given) | -11% | >57
CCCCn1ccnc1C(=O)c1cccc(S(=O)(=O)N2c3ccccc3CC2C)c1 (stereo not given) | -25% | >57
CCOC(=O)c1[nH]c2ccc(OCC)cc2c1NC(=O)CN1CCN(c2ccccc2)CC1 | 2% | >57
Cc1sc2ncnc(OCC(=O)NCC3CCCO3)c2c1C (stereo not given) | 4% | >57
CCOC(=O)N1CCN(c2c(NC3CCN(Cc4ccccc4)CC3)c(=O)c2=O)CC1 | -9% | >57
Cc1noc(/C=C/N(C)C)c1S(=O)(=O)N1CCCC(C(=O)NC2CCCCC2C)C1 (stereo not given) | -18% | >57
COc1ccc(CNc2ncnc3ccc(-c4ccc5c(c4)OCO5)cc23)c(OC)c1 | ? | >57
COc1cccc(N2CCN(C3CC(=O)N(c4ccc(C)c(Cl)c4)C3=O)CC2)c1 (stereo not given) | -9% | >57
O=C1N(c2ccc(Cl)c(Cl)c2)CN(Cc2ccccc2)CN1n1cnnc1 | 6% | >57
Cc1ccc(C2CC(=O)Nc3sc(C(N)=O)c(N)c32)cc1 (stereo not given) | 1% | >57
CC(=O)OCC(=O)[C@@]1(O)CC[C@@H]2[C@H]3CCC4=CC(=O)CC[C@]4(C)[C@]3(F)[C@@H](O)C[C@@]21C | 2%[3.58 µM] | >57
Brc1cnc(N2CCCC2)nc1N1CCOCC1 | 6% | >57
CCCCOC(=O)CN1C(=O)c2ccc(C(=O)OCCCC)cc2C1=O | ? | >57
Cc1ccc(-c2nc(-c3nccc4ccccc34)oc2-c2ccccc2)cc1 | ? | >57
COc1ccc(C(=O)CSc2nnc(-c3cnccn3)n2Cc2ccco2)cc1 | ? | >57
CCCc1cc(-n2ccnc2)n2c(nc3ccccc32)c1C#N | 0% | >57
O=C(OC(C(=O)NCc1cccs1)c1ccccc1Cl)c1ccco1 (stereo not given) | ? | >57

Continued; the last 5 above are carried over.
SMILES | Anthrax LT inh | Prx2 Sm inh
CCCCOC(=O)CN1C(=O)c2ccc(C(=O)OCCCC)cc2C1=O | ? | >57
Cc1ccc(-c2nc(-c3nccc4ccccc34)oc2-c2ccccc2)cc1 | ? | >57
COc1ccc(C(=O)CSc2nnc(-c3cnccn3)n2Cc2ccco2)cc1 | ? | >57
CCCc1cc(-n2ccnc2)n2c(nc3ccccc32)c1C#N | 0% | >57
O=C(OC(C(=O)NCc1cccs1)c1ccccc1Cl)c1ccco1 (stereo not given) | ? | >57
Cc1cc(NC(=O)CCN2CCC(C(N)=O)CC2)ccc1Br | ? | >57
CC(=O)N1CCC[C@@]2(CCN(C(c3ccccc3)c3ccccc3)C2)C1 | 18% | >57
CCc1cc2c(CN3CCN(CCO)CC3)cc(=O)oc2cc1O | ? | >57
Cc1ccc(SC/C(O)=C(\C#N)c2nc3ccccc3n2C)cc1 | ? | >57
CC(C)N1C(=S)SC(C)(C)C1NO (stereo not given) | . | >57
Cc1cc(N)ccc1-n1c(C)ccc1C | -1% | >57
Cc1cc(C)c2cc(C#N)c(NCCCNC(=O)CCC(=O)O)nc2c1 | 17% | >57
CCCCCCN(C(=O)CCCCCN1C(=O)NC(c2ccc(-c3ccccc3)cc2)C(C(=O)OCc2ccccc2)=C1C)C(C(=O)NCCCC)c1ccc(-c2ccccc2)cc1 (stereo not given) | 0% | .
COc1ccc2[nH]c(=O)c(CN(CC3CCCO3)C(=O)Nc3ccccc3OC)cc2c1 (stereo not given) | -16% | >57
CCN1c2ccccc2NC2C1C(C(C)=O)C(=O)N2c1ccc(Cl)cc1 (stereo not given) | ? | .
CCn1c(C(=O)N2CCC(C(=O)NCc3ccc4c(c3)OCO4)CC2)cc2sccc21 | ? | >57
O=C1C=CC(=O)c2c1ccc1c2ccc2ccccc21 | -5%[3.58 µM] | >57
NC(N)=Nc1nc(CSCC/C(N)=N/S(N)(=O)=O)cs1 | 0%[3.58 µM] | >57&>57
